Screening results from PubChem BioAssay.
GIV Gai3 FP – inhibitors of GIV peptide binding to Galpha-i3, primary screen, biochemical, fluorescence polarization, FITC-GIV GBA peptide, rat Galphai3. Guanine nucleotide-binding protein G(i) subunit alpha-3 (Rattus norvegicus), P08753. 90 min; hits give low values; scaled: aluminum fluoride 0%, vehicle 100%. percent of control (FP), % (concentration not given with the values). 210,000 compounds, 0.42% hits. AID 1224905, 2016;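 active = replicate mean at 85% of control or lower, very high polarization wells dropped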;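 also: wells of about 15 µL received 100 nL stock; the first replicate is given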
Target sequence (P08753 whole entry, looked up): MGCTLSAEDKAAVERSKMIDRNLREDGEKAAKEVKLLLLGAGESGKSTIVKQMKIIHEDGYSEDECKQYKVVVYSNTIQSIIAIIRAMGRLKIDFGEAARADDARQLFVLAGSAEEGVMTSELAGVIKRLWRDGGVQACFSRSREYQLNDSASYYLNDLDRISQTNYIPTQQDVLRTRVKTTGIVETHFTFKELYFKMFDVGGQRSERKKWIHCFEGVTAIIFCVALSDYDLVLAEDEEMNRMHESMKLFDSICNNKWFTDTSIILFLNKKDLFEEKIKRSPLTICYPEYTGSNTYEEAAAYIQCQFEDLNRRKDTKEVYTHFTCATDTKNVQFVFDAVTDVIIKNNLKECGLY
Sa growth 42C – S. aureus growth inhibition at 42 and 30 °C, primary screen, LtaS inhibitor project, RN4220, two temperatures; 170,000 compounds, 0.53% hits; OD600, 20 h, 42 °C; hits give low values; AID 720641, 2013; relative growth, % (no concentration beside the values);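 active = growth at 42 °C up to 50% and 20 or more points under that at 30 °C, or under 10% at both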;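 also: 300 nL library stock went into each well; scaled to the means of positive and negative controls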
HCMV UL50-53 inh – inhibitors of HCMV UL50-UL53 interaction, biochemical, HTRF; AID 1918969, 2023; inhibition, % (test concentration not listed); normalized percent inhibition; HCMV UL50-UL53 nuclear egress complex (human cytomegalovirus); 190,000 compounds, 0.15% hits;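 active = both replicates at 50% or more, plus weaker picks with an unusually low signal ratio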;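 also: stock transfer was 100 nL into about 20 µL; 0% = negative control wells and 100% = wells with untagged competitor protein; inactives centre near -12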
Sa growth 42C second temp – recorded beside Sa growth 42C, whose call it bears; relative growth, %; measured here: growth at 30 °C;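 optical density after 20 h as mean of two plates; 100% = untreated growth and lower means inhibition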
* marks the source's active call; other numbers are inactive results; nt = not tested or not shown; & = joins results of further samples.

SMILES	GIV Gai3 FP	Sa growth 42C	Sa growth 42C second temp	HCMV UL50-53 inh
COc1ccc(C2CC(=O)C3=C(C2)Nc2ccccc2N(C(=O)C(F)(F)F)C3c2ccc(OC)c(OC)c2)cc1 (stereo not given)	103	nt	nt	-9
O=C(NCCc1ccc(F)cc1)C(=O)NCC(c1cccs1)S(=O)(=O)c1ccccc1 (stereo not given)	108	109	95	nt
COC(=O)c1cc(N2CCNCC2)nc2ccccc12	nt	96	102	-9
CCCN(CC1CC1)C(=O)CSc1nc2ccccc2c(=O)n1CCC	nt	96	102	6
CCC(=O)N(c1nnc(SCC(=O)c2ccc(CC(N)=O)s2)s1)C1CC1	nt	79	44	-45
CCc1nnc2c3ccccc3nc(Nc3cc(C)cc(C)c3)n12	108	98	79	-11
CCCOc1c(Br)cc(C(=O)O)cc1OC	nt	90	101	-11
CCOC(=O)c1cccnc1SCC(=O)Nc1ccc(C)cc1	114	117	69	nt
CC1Cc2ccccc2N1CC(=O)NC(=O)NC1CCCCC1 (stereo not given)	nt	91	95	-22
CN(CC(=O)NC1CCCC1)Cc1ccc(Cl)s1	nt	95	94	-9
CCN=c1scc(-c2ccc(Br)s2)n1N=C1CCCCC1	nt	61	94	-15
COc1ccc(-c2cc3nc(C)cc(N4CCN(c5nc(C)cc(C)n5)CC4)n3n2)cc1OC	107	nt	nt	-32
Cc1ccc(Cc2nc(CCNC(=O)c3cccc(Cl)c3)n[nH]2)cc1	97	nt	nt	-10
CC(=O)N1c2ccc(S(=O)(=O)NCC3CCC(C(=O)Nc4ccccc4C)CC3)cc2CC1C (stereo not given)	105	106	101	nt
CCOc1cccc(C(=O)N(Cc2ccc(CC)cc2)C2CCS(=O)(=O)C2)c1 (stereo not given)	105	122	101	25
O=C(NCCCN1CCCCCC1)c1ccc2c(Cl)c3c(nc2c1)CCCC3	102	97	87	nt
CC1CCN(C(=O)COC(=O)/C=C/c2ccccc2Cl)CC1	nt	106	100	-5
NC(=O)Cc1c[nH]c2ccccc12	nt	83	96	7&-26
O=C(COc1ccc([N+](=O)[O-])cc1)NCC1(N2CCOCC2)CCCCC1	102	104	94	-18
COc1ccc(NC(=O)Nc2ccc3c(c2)oc(=O)n3C)cc1OC	102	nt	nt	-22
O=C(CCn1c(=O)c2sccc2n(CC(=O)Nc2ccccc2)c1=O)NCc1ccccc1Cl	101	109	86	-25
CC1CCc2c(sc3nc(CCC(=O)NC4CC4)[nH]c(=O)c23)C1 (stereo not given)	102	nt	nt	-10
O=C(Oc1ccc(-c2nnco2)cc1)c1cccc(S(=O)(=O)N2CCc3ccccc32)c1	nt	110	94	-9
CC1=C(c2ccc(C)cc2)S(=O)(=O)NC1=NCCCN1CCN(c2ccc(F)cc2)CC1	95	101	69	-13
Cn1nc(C(=O)OCC(=O)NCc2ccc(Cl)cc2)c2ccccc2c1=O	nt	105	92	-16
CN(C)C(=O)c1ccc2c(c1)N(CC(=O)N1CCOCC1)C(=O)CO2	99	nt	nt	-9
N#Cc1cn(CC(=O)Nc2ccccc2C(F)(F)F)c2ccccc12	103	107	80	-10
O=C(CCC(=O)OCC(=O)c1ccc(Cl)cc1)Nc1ccc(Oc2ccccc2)cc1	110	100	102	-6
CC(C)CCNC(=O)Nc1cc(C(=O)NCc2cccc(F)c2)ccc1N1CCCC1	103	79	88	nt
CCC(C)N1C(=O)CCC1C(=O)N1CCN(c2ccc(F)cc2)CC1 (stereo not given)	103	106	92	4
COc1ccc(-n2c(/C=C/c3cc(OC)c(OC)cc3OC)nc3cc4ccccc4cc3c2=O)cc1Cl	117	113	94	nt
CCCSc1nc2c(c(=O)[nH]1)C(c1sccc1C)C(C(=O)OCC)=C(C)N2 (stereo not given)	101	nt	nt	-13
CCOc1ccc(NC(=O)c2oc3ccccc3c2NC(=O)c2ccc(OC)cc2OC)cc1	109	108	71	-14
CN(C)C(=O)COC(=O)c1cc(Cl)cc(Cl)c1N	nt	90	85	-16
CC1CCc2cc(F)ccc2N1C(=O)Nc1ccc(F)cc1 (stereo not given)	101	123	92	nt
COc1ccc(Cl)cc1NC(=O)C(C)n1nnc2sc3c(c2c1=O)CCCC3 (stereo not given)	104&109	106	84	-27&13
CCC(=O)Nc1ccc2c(c1)oc1ccccc12	107	106	112	0
COc1ccc2oc(=O)c(C(=O)NCCc3c(C)[nH]c4ccc(Br)cc34)cc2c1	106	109	89	-34
COc1ccc(N(C(C)=O)c2nc3ccccc3[nH]2)cc1	100	97	111	-11
O=C1CSc2nnc(Cn3nnc4ccccc43)n2N1	100	83	78	-7
O=C(CCc1nc(-c2ccccn2)no1)NCc1ccc(F)cc1	100	99	81	-7
CC(=O)c1ccc(NC(=O)c2ccc3c(c2)N(Cc2cccc(Cl)c2)C(=O)c2ccccc2S3=O)cc1 (stereo not given)	102	121	87	nt
N#Cc1c(C(F)(F)F)cc(=O)[nH]c1S	nt	84	83	-48
CN(n1cnc2ccsc2c1=O)S(=O)(=O)c1ccc(Cl)cc1	107	93	87	-25
COc1ccc(-c2cn3c(n2)sc2cc(C(=O)Nc4ccccc4F)ccc23)cc1	112	108	88	nt
COc1ccc(CNS(=O)(=O)c2cc(C(=O)Nc3cc(Cl)cc(Cl)c3)ccc2F)cc1	102	126	93	nt
CCSc1ccc(C(=O)Nc2ccc(-c3nc4ccc(C)cc4s3)cc2)cc1	110	121	105	nt
CCC(=O)c1cc(Cl)ccc1O	nt	78	86	-15
O=C1NC(=O)C2C1Sc1[nH]c(=O)sc1C2c1c[nH]c2ccccc12 (stereo not given)	nt	63	73	-62
O=C(COC(=O)C12CCC(=O)N1c1ccccc1S2)c1ccc2c(c1)OCO2 (stereo not given)	nt	93	97	3
COc1cc(N(C(=O)c2cnccn2)C(C(=O)NCc2ccccc2)c2cccs2)ccc1-n1cnnn1 (stereo not given)	104	99	81	-16
Cc1ccccc1C(=O)Nc1cccc(OCc2cc(=O)n3c(C)csc3n2)c1	99	112	84	-24
COc1ccccc1CNC(=O)c1ccc(-c2nc(CN3CCc4ccccc43)c(C)o2)cc1	110	128	98	nt
Clc1ccc2c(c1)C(N1CCNCC1)=Nc1ccccc1O2	103&105	86&95	81&93	1&-28&-21&-55&-27
CCOc1ccc(NC(=O)c2noc3c2CSc2ccccc2-3)cc1	100	90	97	-9
COc1ccc(S(=O)(=O)CCc2nc3ccccc3n2CC(=O)O)cc1	106	85	87	16
NC1(C(=O)O)CCc2cc(C(=O)O)ccc21 (stereo not given)	105	nt	nt	-20
O=C1c2oc3ccccc3c(=O)c2C(c2cccc(Br)c2)N1c1ccccn1 (stereo not given)	103	110	98	nt
O=C(O)COc1ccc2nncn2n1	102	80	88	-18
O=C(CSc1nc2sc3c(c2c(=O)n1Cc1ccco1)CCCC3)NC(=O)NC1CC1	nt	103	106	8

Carrying on.
SMILES	GIV Gai3 FP	Sa growth 42C	Sa growth 42C second temp	HCMV UL50-53 inh
CCCN1CCN(C(=O)C2CCN(S(=O)(=O)c3c(C)[nH]c(C)c3C(=O)N3CCCCC3)CC2)CC1	115	nt	nt	-14
Cc1nnc(-c2cn(CC(=O)NCCN3CCOCC3)c3ccccc23)o1	97	nt	nt	-25
Cn1cc(-c2nnc(-c3ccccc3)o2)c2ccccc21	102	99	87	-23
COc1ccc(-n2ccnc2SCC(=O)N2CCCC2c2cccs2)cc1 (stereo not given)	nt	111	86	-28
CCNC(=O)c1nnc(-c2oc3ccc(C)cc3c2C)o1	104	nt	nt	-8
Cc1cc(C)c(C)c(S(=O)(=O)Nc2ccccc2C(=O)NCCCN2CCOCC2)c1C	nt	92	92	-15
N#CC(C#N)=C1C(=O)c2ccccc2C1=O	98	80	48	-76
CC(=O)Oc1cccc2c1OC(C)(C)C2	nt	117	100	7
O=C(Oc1ccc(Cl)cc1Cl)c1csc(-c2ccc3nonc3c2)n1	108	99	96	-14
Cc1ccc(OCCSc2nc(-c3ccccc3C)nc3cc(=O)[nH]n23)cc1Cl	104	108	100	nt
CCC(=O)N(CCc1ccccc1)C1CC(=O)N(c2ccccc2)C1=O (stereo not given)	nt	102	92	-21
Cc1c2c(nc3c(C(=O)NC4CCCCC4C)cnn13)CCCC2 (stereo not given)	102	117	90	1
O=C(c1ccccc1Cl)N1CCCC(c2nc3c(nnn3Cc3ccc(F)cc3F)c(=O)[nH]2)C1 (stereo not given)	100	89	93	11
CC1CCN(C(=O)c2ccc(N3C(=O)c4ccccc4C3=O)cc2)CC1	103	90	105	-71
Cc1cccc(C(=O)OCC(=O)NC23CC4CC(CC(C4)C2)C3)c1O	nt	105	94	10
CCC1CCCCN1C(=O)CSc1nnc(-c2ccc(Cl)cc2)o1 (stereo not given)	99	111	73	nt
CCC1CCCCN1C(=O)c1ccc(C(C)(C)C)cc1 (stereo not given)	nt	90	79	-6
O=C(NCCc1nnc2ccc(NCCO)nn12)c1ccccc1	98	90	83	-29
NC(=O)NCC(=O)N1CCN(C(=O)c2ccccc2)CC1	nt	94	92	-21
O=C(CSc1ccccc1)OCC(=O)c1cc2ccccc2o1	nt	83	90	-6

Three structures from above, arranged by formula weight, smallest number first:
SMILES	GIV Gai3 FP	Sa growth 42C	Sa growth 42C second temp	HCMV UL50-53 inh
O=C(O)COc1ccc2nncn2n1	102	80	88	-18
O=C(NCCc1ccc(F)cc1)C(=O)NCC(c1cccs1)S(=O)(=O)c1ccccc1 (stereo not given)	108	109	95	nt
O=C(CCn1c(=O)c2sccc2n(CC(=O)Nc2ccccc2)c1=O)NCc1ccccc1Cl	101	109	86	-25

(listing goes on)
SMILES	GIV Gai3 FP	Sa growth 42C	Sa growth 42C second temp	HCMV UL50-53 inh
CN(C)S(=O)(=O)c1ccc(C(=O)OCC(=O)c2cc3ccccc3o2)cc1	nt	84	94	-24
O=C(CC(c1cccs1)N1Cc2ccccc2C1=O)N1CCC2(CC1)OCCO2 (stereo not given)	110	99	99	1
O=C(O)c1ccc(N/C=C/C(=O)c2ccco2)cc1	110	73	74	nt
COc1ccc(CCN2C(=O)NC(NS(=O)(=O)c3ccc(NC(C)=O)cc3)(C(F)(F)F)C2=O)cc1OC (stereo not given)	99	87	91	-12
Cc1cc2nc(N3CCc4ccccc43)c3ccccc3n2n1	nt	86	87	-7
CCOC(=O)C1=C(CSc2nnc(-c3ccccc3)n2CC)NC(=O)NC1c1cccs1 (stereo not given)	nt	76	92	-30
O=C(NCc1ccccc1)c1ccc2c(c1)N(Cc1cccc(Cl)c1)C(=O)CS2	100	nt	nt	-14
O=C(Nc1ccccc1C(=O)OCc1cc(=O)n2c3c(sc2n1)CCCC3)c1ccc(Cl)cc1	98	89	98	nt
CC(C)(CNC(=O)c1ccccc1Sc1ccccc1C#N)N1CCOCC1	nt	82	95	-26
O=c1[nH]c2cc(Cl)ccc2c(-c2ccccc2)c1SC1=NCCS1	104	96	56	nt
Cc1ccc(C)n1CC1CCCO1 (stereo not given)	nt	121	71	-23
COc1ccc(CNC(=O)c2cnc(N3CCOCC3)c3ccccc23)cc1	116	117	95	nt
Cc1ccc(CN(C)c2nc(-c3cccnc3)nc3sc4c(c23)CCCC4)o1	nt	2.1*	1.1*	-31
N#C/C(=C\c1ccc(Sc2nc3ccccc3[nH]2)o1)c1ccccc1	116	130	96	-24
CSc1nnc(-c2csc(C)n2)n1-c1cccc(F)c1	102	105	89	1
COc1ccc(NC(=O)c2ccc(-c3nc(CSc4ccc(C)cc4)c(C)o3)cc2)cc1Cl	105	138	87	nt
CC[C@H](c1ccc(O)cc1)[C@@H](CC)c1ccc(O)cc1	103	87	87	-34
CC1(C)Cc2cccc(C(=O)Nc3ccc(F)cc3F)c2O1	98	81	83	0
CCOC(=O)/C(C#N)=C\c1cccn1C	105	93	95	-82
COc1cccc(OCC(=O)Nc2ccncc2)c1	nt	104	101	14
C=CCn1c(SCc2ccc3c(c2)OCO3)nc2sc(C)c(C)c2c1=O	100	nt	nt	-9
CCOc1cc(/C=C/C(=O)O)ccc1OCc1ccccc1	nt	98	83	-51
CCN(CC)C(=O)Cn1c(=O)n(CCc2ccccc2)c(=O)c2ccccc21	107	86	84	-23
CCOC(=O)c1c(C)[nH]c(CCC(=O)Nc2ccc(OC)c(OC)c2)c1C	108	81	88	nt
COc1ccc(-c2[nH]ncc2C(=O)NCc2cccc(OC)c2)cc1	104	106	88	-28
CSc1cccc(NC(=O)CSc2nc3ccncc3[nH]2)c1	98	89	79	-13
O=S(=O)(c1ccc(NC2CCCC2)nn1)C1CCCCC1	99	nt	nt	18
O=C(NCC1CCCO1)c1cc2occc2c(Nc2ccc(F)cc2)n1 (stereo not given)	106	nt	nt	-9
